High-throughput results as filed in PubChem.
rRNA inh HTS – inhibitors of bacterial rRNA selective over humanized ribosomes; GFP signal change (wild-type ribosome), % (test concentration not listed); E. coli WT GFP vs humanized-ribosome RFP mutants, fluorescence, 24 h; stronger effect = lower value; DMSO median 0, no signal -100; actives 1.6% (n = 350,000);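 active means significant combined selectivity score with lowered wild-type GFP, culture density cut under 30%, mutant RFP and density less affected; inactive means any of these conditions unmet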; further: one replicate is shown; some compounds called inactive have numbers as strong as hits
FGF22 binding – binders of recombinant human FGF22 by thermal shift | SYPRO orange fluorescence; percent of sucrose octasulfate shift, DMSO zero | actives 1.5% (n = 340,000) | calls only at 9.99 µM | Q9HCT0;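 active means melting point raised past a set limit in the mean and every replicate; three in four hits are not shown here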
Target sequence (Q9HCT0 whole entry, looked up): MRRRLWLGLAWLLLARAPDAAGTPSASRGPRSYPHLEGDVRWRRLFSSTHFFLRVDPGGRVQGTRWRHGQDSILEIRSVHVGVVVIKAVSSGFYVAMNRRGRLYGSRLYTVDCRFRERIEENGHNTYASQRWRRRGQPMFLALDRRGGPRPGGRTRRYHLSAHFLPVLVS
AF4-AF9 inh – blocks AF4 peptide binding to human AF9. P42568. AlphaScreen, biotin-AF4 peptide binding to FLAG-AF9. inhibition, % at 10 µM. actives 0.47% (n = 350,000). AID 651704;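 active means every replicate reaching a set inhibition limit, whatever the replicate mean, cut at about 25% in these data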;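 further: 0% = plate neutral control median and 100% = total signal loss; the record names both 10 and 1 µM as test concentration; the first replicate is given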
Target sequence (P42568 whole entry, looked up): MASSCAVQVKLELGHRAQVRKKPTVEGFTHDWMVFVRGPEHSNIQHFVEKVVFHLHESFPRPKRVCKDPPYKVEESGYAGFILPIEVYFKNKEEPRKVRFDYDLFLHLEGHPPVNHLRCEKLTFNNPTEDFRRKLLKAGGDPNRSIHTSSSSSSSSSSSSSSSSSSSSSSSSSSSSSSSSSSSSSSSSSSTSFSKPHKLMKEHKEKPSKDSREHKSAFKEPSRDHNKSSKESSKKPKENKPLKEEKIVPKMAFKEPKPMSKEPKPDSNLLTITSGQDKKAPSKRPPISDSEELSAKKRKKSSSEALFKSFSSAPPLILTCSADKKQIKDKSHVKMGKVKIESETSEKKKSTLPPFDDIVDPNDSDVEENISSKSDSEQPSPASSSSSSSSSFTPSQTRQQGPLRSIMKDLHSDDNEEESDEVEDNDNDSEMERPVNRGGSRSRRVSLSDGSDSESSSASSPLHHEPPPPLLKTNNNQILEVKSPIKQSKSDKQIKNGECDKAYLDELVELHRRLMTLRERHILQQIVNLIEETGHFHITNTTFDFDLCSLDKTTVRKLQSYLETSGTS
rRNA inh HTS OD600 – also measured in rRNA inh HTS; calls as there; OD600 change, %; measured here: OD600 growth;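 optical density of the mix in the first replicate; 0 = DMSO median and -100 = no signal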
rRNA inh HTS RFP – also measured in rRNA inh HTS; calls as there; RFP signal change, %; measured here: RFP humanized mutant strains;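 first replicate; 0 = DMSO median and -100 = no signal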
An asterisk follows results filed as active; i = inactive; + = active, no number; & = joins results of further samples. An excerpt (hit frequency here may not be typical).

Under each structure: rRNA inh HTS | rRNA inh HTS OD600 | rRNA inh HTS RFP | FGF22 binding | AF4-AF9 inh
- C[C@@H]1CCCCO[C@H](CN(C)Cc2ccc(C(F)(F)F)cc2)[C@H](C)CN([C@@H](C)CO)C(=O)c2cc(N(C)C)ccc2O1
 : -3 | -38 | 19 | i | 29*
- CCOc1ccc(NC(=O)c2ccc(NS(=O)(=O)c3cccc4cccnc34)cc2)cc1
 : 10 | 13 | -1.0 | i | 5.7
- COc1ccc(CN2CC3(CCN(C(=O)Cc4ccncc4)CC3)c3c([nH]c4cc(OC)ccc34)[C@@H]2CO)cc1
 : -2 | 2 | -3.9 | i | -4.7
- COc1ccc(S(=O)(=O)Nc2ccc3c(c2)CC(=O)N([C@H](C)CO)C[C@H](C)[C@@H](CN(C)C)O3)cc1
 : 2 | 13 | -1.0 | i | -7.6
- C[C@H](CO)N1C[C@H](C)[C@H](CN(C)Cc2ccc(Oc3ccccc3)cc2)Oc2ccc(NC(=O)CCN3CCOCC3)cc2C1=O
 : -1 | 1 | 0.2 | i | 7.1
- O=C(Nc1ccccc1)[C@@H]1[C@@H](CO)[C@@H]2Cn3c(cccc3=O)[C@@H]2N1C(=O)C1CCCC1
 : 1 | 3 | 0.4 | i | -0.1
- C[C@@H]1CN([C@H](C)CO)C(=O)c2cccc(NS(=O)(=O)c3cn(C)cn3)c2O[C@@H]1CN(C)Cc1ccc(C(=O)Nc2ccccc2N)cc1
 : -1 | 11 | -1.0 | i | 4.5
- Cc1noc(C)c1NC(=O)N(C)C[C@H]1Oc2c(NC(=O)c3cnccn3)cccc2C(=O)N([C@H](C)CO)C[C@H]1C
 : 2 | 3 | -2.5 | i | -1.2
- C/C=C/c1ccc([C@@H]2[C@@H](CO)N(C(=O)NC(C)C)[C@H]2CN(C)C(C)=O)cc1
 : 3 | 6 | 0.4 | i | -1.2
- CNC[C@@H]1Oc2ccc(NS(=O)(=O)c3cn(C)cn3)cc2C(=O)N([C@@H](C)CO)C[C@@H]1C
 : 0 | 5 | 0.1 | i | -3.4
- CC(C)NC(=O)Nc1ccc2c(c1)C(=O)N([C@@H](C)CO)C[C@H](C)[C@@H](CN(C)S(=O)(=O)c1ccccc1)O2
 : 0 | 2 | 0.4 | i | -3.0
- COCCNC(=O)C1CCCN(Cc2ccc(C(C)C)cc2)CC1 (centres undefined)
 : 19 | 12 | 2.6 | i | -2.4
- CC(C)(C)OC(=O)N(CCc1ccccc1)Cc1ccc(OCc2cccc(NC(=O)C3CC3)c2)cc1
 : 9 | 14 | -2.1 | i | -2.3
- CO[C@@H]1CN(C)C(=O)c2cc(NS(=O)(=O)c3ccc(F)cc3)ccc2OC[C@@H](C)NC[C@@H]1C
 : 1 | 3 | -0.3 | i | -2.5
- CC(C)NC(=O)N(C)C[C@H]1Oc2c(NS(C)(=O)=O)cccc2C(=O)N([C@@H](C)CO)C[C@@H]1C
 : 5 | -3 | -3.2 | i | -2.8
- C[C@@H]1CN([C@@H](C)CO)C(=O)c2cccc(NC(=O)C3CCCCC3)c2O[C@H]1CN(C)CC1CCCCC1
 : 1 | 17 | -2.6 | i | 3.3
- CCCNC(=O)[C@@H]1[C@@H](CO)[C@@H]2Cn3c(ccc(-c4cccc(C(=O)N(C)C)c4)c3=O)[C@H]1N2
 : 0 | 4 | -1.5 | i | -12
- COc1ccc(S(=O)(=O)Nc2ccc3c(c2)C(=O)N([C@@H](C)CO)C[C@H](C)[C@H](CN(C)Cc2ccc(C(=O)O)cc2)OCCCC[C@@H](C)O3)cc1
 : 7 | 5 | -2.4 | + | -9.6
- C[C@@H]1CN([C@@H](C)CO)C(=O)c2cc(Br)cnc2O[C@@H]1CN(C)Cc1ccc(Oc2ccccc2)cc1
 : -41&-29 | -77&-74 | -2.5&11 | i | 14&4.7
- Cc1noc(C)c1S(=O)(=O)Nc1ccc2c(c1)C(=O)N([C@H](C)CO)C[C@H](C)[C@H](CN(C)S(=O)(=O)c1cn(C)cn1)OCCCC[C@@H](C)O2
 : -2 | -5 | -3.7 | i | 3.0
- O=C(C[C@@H]1CC[C@@H]2[C@H](COC[C@@H](O)CN2Cc2cccc(F)c2)O1)NCc1cccc(F)c1
 : -8 | -18 | 0.7 | i | 0.2
- CCCNC(=O)C[C@H]1CC[C@@H]2[C@@H](COc3ccc(NC(=O)Nc4ccccc4F)cc3C(=O)N2C)O1
 : -2 | -4 | 1.8 | i | 1.2
- C[C@@H]1CN([C@@H](C)CO)C(=O)c2cc(-c3ccccc3)cnc2O[C@@H]1CN(C)Cc1ccccc1
 : 1 | 9 | -1.6 | i | -0.9
- CC(=O)N1C[C@H]2CON(C)[C@H]2C[C@H]1c1cccc(N2CCOCC2)c1
 : 7 | 13 | -1.3 | i | 0.4
- Cc1ccccc1Oc1ccc2c(c1)[C@@H]1C[C@H](N(C)C(=O)c3ccc(C#N)cc3)[C@H]([C@H](C)O)C(=O)N1CC2
 : -20 | -9 | 20 | i | 1.6
- CS(=O)(=O)N1[C@H](C#N)[C@H](c2ccc(C#CC3CCCC3)cc2)[C@H]1CO
 : -42 | -70 | -3.1 | i | 1.9
- CCC(=O)Nc1ccc2c(c1)OC[C@H](C)N(C(C)=O)C[C@H](C)[C@@H](OC)CN(C)C2=O
 : 1 | 1 | 0.2 | i | -0.7
- Cc1ccc(S(=O)(=O)Nc2ccc3c(c2)CC(=O)N([C@@H](C)CO)C[C@H](C)[C@@H](CN(C)CC2CCCCC2)O3)cc1
 : -42 | -65 | -1.7 | i | 3.4
- COc1ccc(S(=O)(=O)N(C)C[C@H]2OCCCC[C@H](C)Oc3ccc(NC(=O)Nc4ccc(C(F)(F)F)cc4)cc3C(=O)N([C@H](C)CO)C[C@@H]2C)cc1
 : 0 | 4 | -0.9 | i | -11
- O=C(NCC[C@H]1CC[C@@H](NC(=O)C2CCOCC2)[C@@H](CO)O1)c1ccc(F)cc1
 : -2 | 5 | -3.4 | i | -3.2

The results go on:
SMILES,rRNA inh HTS,rRNA inh HTS OD600,rRNA inh HTS RFP,FGF22 binding,AF4-AF9 inh
CN1CCN(C(=O)[C@H]2[C@H](CO)[C@H]3Cn4c(ccc(-c5cncnc5)c4=O)[C@H]3N2CC2CC2)CC1,4,8,0.5,i,0.2
COc1ccc(S(=O)(=O)N2CCCC2CNC(=O)C(=O)NC2CCCC2)cc1 (centres undefined),-3,-5,0.4,i,-2.7
Cc1ccc(S(=O)(=O)Nc2cccc3c2O[C@@H](CN(C)CC2CC2)[C@H](C)CN([C@H](C)CO)C3=O)cc1,3,3,-0.4,i,-3.1
C[C@@H]1CCCCO[C@H](CN(C)Cc2ccc(C(F)(F)F)cc2)[C@@H](C)CN([C@H](C)CO)C(=O)c2cc(NC(=O)CCCN(C)C)ccc2O1,3,-5,0.2,i,4.5
C[C@H](CO)N1C[C@H](C)[C@@H](CN(C)C(=O)c2ccncc2)Oc2cc(C#Cc3ccncc3)ccc2S1(=O)=O,-2,-6,2.7,i,-5.8
COCC#Cc1cnc2c(c1)C(=O)N([C@H](C)CO)C[C@@H](C)[C@@H](CN(C)C(=O)Cc1ccncc1)O2,8,13,4.1,i,-1.2
CCC(=O)N1[C@H](C(=O)NCC2CC2)[C@@H](CO)[C@@H]2Cn3c(cccc3=O)[C@@H]21,-2,8,-3.2,i,-0.3
O=C(NCC[C@H]1CC[C@H](NC(=O)C2CCCCC2)[C@@H](CO)O1)c1cc(Cl)cc(Cl)c1,4,1,1.9,i,-2.8
COCC#Cc1ccc2c(c1)O[C@H](CN(C)C(=O)COC)[C@@H](C)CN([C@@H](C)CO)S2(=O)=O,7,3,-1.4,i,-0.7
CO[C@@H]1CN(C)C(=O)c2cc(NC(C)=O)ccc2OC[C@@H](C)N(C(=O)Cc2ccccn2)C[C@H]1C,3,-1,-1.9,i,-0.5
CC(C)(C)c1ccc(C(=O)O/N=C(\N)Cc2cccs2)cc1,-17,-17,1.5,i,-1.4
C[C@@H]1CCCCO[C@@H](CN(C)C)[C@@H](C)CN([C@@H](C)CO)C(=O)c2cc(NC(=O)C3CCCCC3)ccc2O1,1,1,-2.4,i,-3.0
CC1CN(C(=O)CSc2nc(N)c(NC(=O)c3ccc(C(F)(F)F)cc3)c(=O)[nH]2)CC(C)O1 (centres undefined),-3,-2,-1.1,i,-1.5
O=C(NCC[C@H]1CC[C@@H](NC(=O)C2CCCCC2)[C@@H](CO)O1)c1ccc(F)cc1,-2,-2,-0.8,i,-1.8
CO[C@H]1CN(C)C(=O)c2cc(NS(=O)(=O)c3ccc(F)cc3)ccc2OC[C@H](C)NC[C@H]1C,4,0,1.0,i,-2.9
CCCN(C)C[C@H]1Oc2cc(-c3ccc(OC)cc3)ccc2S(=O)(=O)N([C@@H](C)CO)C[C@H]1C,-3,0,0.6,i,6.0
CC(C)C[C@@H](CN1CCC[C@H]1CN1C(=O)C(=O)NC[C@@H]1Cc1ccccc1)N1C[C@H](Cc2ccccc2)N(CC2CCCCCC2)C(=O)C1=O,24,10,3.1,i,1.5
O=C(Nc1ccc(F)c(Cl)c1)c1cc(C2CCCCN2C(=O)c2ccc3c(c2)CCO3)on1 (centres undefined),-9,-8,-1.6,i,0.9
C[C@H](CO)N1C[C@H](C)[C@H](CN(C)Cc2ccc(C(=O)Nc3ccccc3N)cc2)Oc2c(NS(=O)(=O)c3ccc(F)cc3)cccc2C1=O,-1,-2,-0.3,i,-0.6
Cc1cc(C(=O)Nc2cccc3c2O[C@H](CN(C)C(=O)NC2CCCCC2)[C@H](C)CN([C@@H](C)CO)C3=O)n(C)n1,-4,-6,-2.0,i,0.7
COc1cccc(S(=O)(=O)N(C)C[C@@H]2OCc3cnnn3CCCC(=O)N([C@H](C)CO)C[C@H]2C)c1,9&-1,18&1,-2.3&-1.8,i,0.0&-1.0
CCCS(=O)(=O)NC(=O)C1(C)CCN(C(=O)c2ccnc(Cl)c2)C1 (centres undefined),5,3,-0.6,i,2.2
CC(C)CC#Cc1ccc2c(c1)O[C@H](CN(C)CC1CC1)[C@H](C)CN([C@H](C)CO)S2(=O)=O,-8,-29,13,i,-3.9
C[C@@H]1CN([C@H](C)CO)C(=O)CCCn2nncc2CO[C@H]1CN(C)S(=O)(=O)c1cccc(C#N)c1,16&-3,9&-2,5.7&-1.9,i,-3.9&-1.6
C[C@@H]1CN([C@H](C)CO)C(=O)c2cc(NS(=O)(=O)c3ccccc3)ccc2O[C@@H](C)CCCCO[C@H]1CN(C)S(=O)(=O)c1ccccc1,-1,1,-2.4,i,-3.1
CO[C@H]1CN(C)C(=O)c2ccc(NC(=O)c3cc(C)on3)cc2OC[C@H](C)NC[C@H]1C,0,9,-0.7,i,-3.9
C[C@@H]1CCCCO[C@H](CN(C)Cc2ccc(C(=O)O)cc2)[C@H](C)CN([C@H](C)CO)C(=O)c2cc(NC(=O)c3ccncc3)ccc2O1,2,14,-1.9,i,-3.2
COc1ccc(NC(=O)Nc2ccc3c(c2)C(=O)N([C@H](C)CO)C[C@H](C)[C@H](CN(C)C(=O)Nc2ccc4c(c2)OCO4)OCCCC[C@H](C)O3)cc1,2,2,-2.8,i,-3.9
C[C@@H]1CN([C@@H](C)CO)C(=O)c2cc(NC(=O)CCN3CCOCC3)ccc2O[C@@H]1CN(C)C,8,15,-0.6,i,2.0
CCCN(C)C[C@@H]1Oc2cc(-c3cccnc3)ccc2S(=O)(=O)N([C@H](C)CO)C[C@@H]1C,0,11,-1.2,i,-0.8
CC(C)NC(=O)N(C)C[C@@H]1Oc2ccc(NC(=O)Nc3ccccc3)cc2CC(=O)N([C@H](C)CO)C[C@H]1C,3,6,-0.3,i,-1.2
COc1ccc(S(=O)(=O)Nc2ccc3c(c2)C(=O)N([C@H](C)CO)C[C@H](C)[C@@H](CN(C)C(=O)c2ccncc2)OCCCC[C@H](C)O3)cc1,-2,4,-0.7,i,-5.0

Profiles as entered above. Order of values: rRNA inh HTS, rRNA inh HTS OD600, rRNA inh HTS RFP, FGF22 binding, AF4-AF9 inh
`CN1CCN(C(=O)[C@H]2[C@H](CO)[C@H]3Cn4c(ccc(-c5cncnc5)c4=O)[C@H]3N2CC2CC2)CC1` reads 4, 8, 0.5, i, 0.2
`CO[C@H]1CN(C)C(=O)c2ccc(NC(=O)c3cc(C)on3)cc2OC[C@H](C)NC[C@H]1C` reads 0, 9, -0.7, i, -3.9
`CC(C)NC(=O)Nc1ccc2c(c1)C(=O)N([C@@H](C)CO)C[C@H](C)[C@@H](CN(C)S(=O)(=O)c1ccccc1)O2` reads 0, 2, 0.4, i, -3.0
`C[C@@H]1CN([C@@H](C)CO)C(=O)c2cc(-c3ccccc3)cnc2O[C@@H]1CN(C)Cc1ccccc1` reads 1, 9, -1.6, i, -0.9
`CC(C)(C)c1ccc(C(=O)O/N=C(\N)Cc2cccs2)cc1` reads -17, -17, 1.5, i, -1.4
